# Screening results from PubChem.
# STK33 inh = human STK33 kinase inhibition; purified STK33, MBP phosphorylation, ADP-Glo luminescence; inhibition, % at 10 µM; actives 0.073% (n = 320,000); AID 2661;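 active = inhibition at or above 25%, using the most active replicate where run in duplicate; inactive = inhibition below 25%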
# Target sequence (Q9BYT3 whole entry, looked up): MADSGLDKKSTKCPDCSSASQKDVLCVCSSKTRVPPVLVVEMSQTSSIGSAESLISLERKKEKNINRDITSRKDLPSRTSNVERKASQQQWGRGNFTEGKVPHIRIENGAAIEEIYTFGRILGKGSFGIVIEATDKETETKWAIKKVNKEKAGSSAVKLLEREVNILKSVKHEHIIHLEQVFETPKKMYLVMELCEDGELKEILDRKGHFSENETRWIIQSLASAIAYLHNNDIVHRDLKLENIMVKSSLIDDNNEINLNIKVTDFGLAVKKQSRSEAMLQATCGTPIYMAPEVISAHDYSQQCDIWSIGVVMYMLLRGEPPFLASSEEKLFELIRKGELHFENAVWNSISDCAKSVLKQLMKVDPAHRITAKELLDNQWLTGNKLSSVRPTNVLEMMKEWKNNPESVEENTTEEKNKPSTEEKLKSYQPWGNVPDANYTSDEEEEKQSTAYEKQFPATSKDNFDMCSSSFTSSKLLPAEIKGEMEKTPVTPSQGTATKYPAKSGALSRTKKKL
# Active calls of the source: *. Only part of the results is shown, and most or all hits are left out here.
STK33 inh | molecule
-0.6 | Cc1cc(OCC(=O)NCC(C)C)cc(C)c1Br
-2.4 | Cc1ccc(S(=O)(=O)C2(S(=O)(=O)c3ccc(C)cc3)CC2)cc1
-0.5 | Cc1cccnc1NC(=O)Nc1cccc2ccccc12
-2.1 | O=C(Nc1ccccc1C(=O)NCCN1CCOCC1)c1ccco1
0.6 | COc1ccc(OC)c(NC(=O)c2cc(S(=O)(=O)N3CCCCC3)c[nH]2)c1
-1.5 | COc1ccc(S(=O)(=O)N(C)c2ccc(C(=O)N3CCCCC3)cc2)cc1OC
-1.0 | CSc1ccccc1NC(=O)CSc1nnc(Cc2ccccc2)o1
-5.6 | CC1CN(C(=O)c2ccc(N3CCCCC3)c([N+](=O)[O-])c2)CC(C)O1 (configuration not stated)
-0.8 | COc1ccc(Cc2noc(CN(C)CCc3ccccc3)n2)cc1OC
-0.6 | CSc1oc(-c2ccco2)nc1S(=O)(=O)c1ccc(C)cc1
-2.3 | Cc1ccc(S(=O)(=O)c2nc(S(=O)(=O)CCO)sc2N2CCOCC2)cc1
0.5 | CCS(=O)(=O)Nc1ccc(-c2ccc(NS(=O)(=O)CC)c(OC)c2)cc1OC
1.4 | Cc1ccc(CCNC(=O)c2cccc(N3CCCC3=O)c2)cc1
-0.1 | Cc1cc(C)c(OCC(=O)Nc2cccc(O)c2)cc1C
-0.5 | CN(C)CCNC(=O)C(=O)NCC1OCCN1S(=O)(=O)c1ccc2c(c1)OCCO2 (configuration not stated)
-0.5 | COc1ccc(Nc2cc(C)nc(-n3nc(C)cc3C)n2)cc1
-0.2 | COc1ccc(-c2ccc(-c3noc(-c4cccc(OC)c4)n3)c(OC)n2)cc1
-2.0 | CN(Cc1ccccn1)Cc1nc(-c2ccc(Cl)cc2)no1
-0.5 | COc1cccc(NC(=O)CCS(=O)(=O)c2ccc3c(c2)oc(=O)n3C)c1
-0.6 | COC(=O)c1ccc(NC(=O)C[n+]2ccccc2)cc1
-1.4 | O=C(CN1CCC(C(=O)c2ccc(F)cc2)CC1)Nc1ccc(F)cc1
-2.0 | O=C(NN=C1c2ccccc2-c2ccccc21)c1ccccc1
-1.1 | COc1ccc(NC(=O)N2CCC(NC(=O)c3ccco3)CC2)cc1
-1.1 | COC(=O)c1ccccc1NC(=O)CSc1nnc(Cc2ccc(Cl)cc2)o1
0.5 | CC(=O)C1=C(C)N(Cc2ccccc2)C(=O)N[C@@H]1c1cccc(C(F)(F)F)c1
0.0 | OCCNCc1cc(Br)ccc1OCc1ccc(F)cc1
-1.2 | O=C(NN1C(=O)c2ccccc2NC1c1ccco1)c1ccc(Br)cc1 (configuration not stated)
-0.5 | CCc1nnc(NC(=O)Nc2ccc(OC)cc2)s1
0.4 | CC1(C(=O)N2CC3(CC(c4cccc(NC(=O)COc5ccc(Cl)cc5)c4)=NO3)C[C@@H]2C(N)=O)CC1 (some centres not stated)
3.7 | CN(C)c1ccnc(-n2cccc2/C=N/O)c1C#N
-0.7 | CCN(CC)c1ccc(C(=S)NC2CCCCC2)cc1
-0.5 | COc1ccc(-c2csc(NC(=O)c3cccc(S(=O)(=O)N4CCN(C)CC4)c3)n2)cc1

# 3 compounds picked at random from the list so far, as already listed:
STK33 inh | molecule
-0.5 | COc1ccc(-c2csc(NC(=O)c3cccc(S(=O)(=O)N4CCN(C)CC4)c3)n2)cc1
-1.2 | O=C(NN1C(=O)c2ccccc2NC1c1ccco1)c1ccc(Br)cc1 (configuration not stated)
-0.7 | CCN(CC)c1ccc(C(=S)NC2CCCCC2)cc1

# (listing goes on)
STK33 inh | molecule
1.0 | O=C(CN1C(=O)COc2ccccc21)NCCCN1CCN(c2ccccc2F)CC1
0.5 | COc1ccc(OC)c(S(=O)(=O)Nc2ccc(C)c(C)c2)c1
-0.1 | Cc1ccc(-n2cc(S(=O)(=O)c3ccc(C)cc3)[nH]c2=O)cc1
-0.2 | OCc1nc2ccccc2n1Cc1c(F)cccc1Cl
-0.9 | CN(C(=O)CN1C(=O)/C(=C/c2ccc(F)cc2)SC1=S)C1CCS(=O)(=O)C1 (configuration not stated)
0.5 | CSc1nccc(N/N=C/c2ccccc2)n1
-1.2 | Cc1cccc(NC(=S)NCCc2ccc(S(N)(=O)=O)cc2)c1C
-1.0 | Cc1cccc(NC(=O)c2cnc3sccn3c2=O)c1
-1.0 | O=C(O)CCC(=O)Nc1ccc(S(=O)(=O)c2ccc(NC(=O)CCC(=O)O)cc2)cc1
-0.1 | CC(C)(C)OC(=O)CN1c2cccc3cccc(c23)S1(=O)=O
-0.9 | CCCCCCCCNC(=O)c1cccnc1SCC(=O)Nc1ccccc1OC
0.4 | O=C(CNC(=O)c1[nH]cnc1C(=O)N[C@@H](Cc1ccccc1)C(=O)OCc1ccccc1)OCc1ccccc1
-1.3 | COc1cccc(NC(=O)CSc2nncn2N)c1
-0.7 | COC(=O)c1ccc(COc2ccc(C(=O)c3ccccc3)cc2)o1
1.7 | CCOC(=O)c1c(N)n[nH]c1-c1ccc(OC)cc1
-0.5 | Cc1ccc(S(=O)(=O)N2CCOCC2)cc1C(=O)N1CCN(S(=O)(=O)c2cccs2)CC1
0.3 | COc1ccc(CN2CCSCC2)cc1O
-1.0 | CCc1[nH]nc2c1C1(CCN(C(=O)OCc3ccccc3)CC1)C(C#N)=C(N)O2
0.8 | CCc1ccc(Nc2n[n+](-c3ccccc3)c(-c3ccc(N(CC)CC)cc3)s2)cc1
-1.0 | CCOC(=O)c1[nH]c2ccc(F)cc2c1NC(=O)CCN1CCOCC1
3.8 | COc1ccc(C(=O)NN=C2CCCC2)c(OC)c1
-0.4 | Cc1oc2c(CN3CCCCC3)c(O)ccc2c(=O)c1-c1ccc(Br)cc1
0.6 | O=c1oc2ccc([N+](=O)[O-])cc2c(N2CCOCC2)c1[N+](=O)[O-]
-1.9 | Cc1ccc(C)c(C(=O)N(Cc2nc(-c3ccc(Cl)cc3)no2)C(C)C)c1
-2.4 | O=C(O)C[C@H]1c2ccc(C(F)(F)F)cc2S(=O)(=O)N1C1CCCCC1
0.6 | CN(C(=O)c1ccc(NC(=O)Cc2ccccc2)cc1)c1ccccc1
3.2 | CSc1nnc(-c2ccco2)c(-c2ccco2)n1
-2.5 | CC(C)CN1C(Nc2ccccc2)=NC[C@@H]1C
0.9 | COc1ccc(CC2(C)OC(c3ccncc3)=NN2C(C)=O)cc1 (configuration not stated)
-1.2 | O=C(Nc1ccccc1)C(=O)c1c[nH]c2ccccc12
0.5 | COc1ccc(-c2nnn(CC(=O)N(Cc3cccs3)C(C)C(=O)NCCC(C)C)n2)cc1OC (configuration not stated)
0.1 | Cc1ccc2nsnc2c1S(=O)(=O)N1CCN(CCc2ccccc2)CC1
0.0 | COc1cc(C(=O)NCC(=O)OCC(=O)Nc2ncc(Cl)cc2Cl)cc(OC)c1OC
-2.0 | COc1ccc2ccccc2c1C(=O)/C=C\c1ccoc1
0.1 | CN(Cc1nc(-c2ccncc2)no1)S(=O)(=O)c1ccccc1
-0.3 | Cc1cccc(CNC(=O)C2CCCN(c3nn4c(=O)cc(C)nc4s3)C2)c1 (configuration not stated)
-1.1 | CCN1CCN(CCNC(=O)CCCCCn2c(=O)[nH]c3cc(C(=O)OC)ccc3c2=O)CC1
0.2 | COc1ccc(C(=O)Nc2ccc([N+](=O)[O-])cn2)c(OC)c1
-2.3 | CC(CN1CCOCC1)C(=O)O (configuration not stated)
-0.5 | CCCOc1ccc(N2C(=O)CC(S/C(N)=N/N=C(\C)c3cccs3)C2=O)cc1 (configuration not stated)
-2.7 | O=C(N/N=C\C=C\c1ccc2c(c1)OCO2)C1COc2ccccc2O1 (configuration not stated)
-0.2 | O=C(COC(=O)c1ccccc1Br)NCCN1C(=O)CSC1=O
-1.1 | COCCNC(=O)C1CCCN(c2ncccn2)C1 (configuration not stated)
1.0 | Cc1c(C(=O)OCC(=O)NCCN2C(=O)CSC2=O)oc2c1ccc1ccccc12
-0.9 | CCn1c(C)cc(/C=C2/NC(=O)N(CC(=O)Nc3cccc(C)c3)C2=O)c1C
1.0 | Cc1sc2ncn(CC(=O)NCCCC(=O)N3CCN(c4ccccc4)CC3)c(=O)c2c1C
-0.9 | Cc1cc(C)cc(N(CC(=O)N2CCCC2)S(C)(=O)=O)c1
1.3 | Cc1nnc2n(C3CCCCC3)c(=O)c3c4c(sc3n12)COC(C)(C)C4
-0.2 | CN(C)S(=O)(=O)N1CCCN(S(=O)(=O)N(C)C)CC1
-0.2 | CCOc1ccc(S(=O)(=O)NCc2csc(C)n2)cc1
0.2 | C=CCNC(=O)C1CC2Cn3c(nc4cc(Cl)c(Cl)cc43)C2N1C (configuration not stated)
2.0 | Cc1c(OCC(=O)N2CCC(C(N)=O)CC2)ccc2c3c(c(=O)oc12)CCCC3
4.7 | COc1ccc(CC(=O)Nc2c(C(N)=O)oc3ccccc23)cc1OC
0.0 | CCOC(=O)c1cnc2c(C)cccc2c1Nc1ccc(N2CCOCC2)cc1
0.5 | CCN(CC)C(=O)CSc1nc2sc3c(c2c(=O)n1CCCOC)CCC3
-0.1 | O=Cc1cn(CC(=O)Nc2ccccc2)c2ccccc12

# Following part:
STK33 inh | molecule
-1.3 | CCCc1cc(C(=O)Nc2cccc(Cl)c2)no1
0.5 | COc1ccccc1CNC(=O)CSc1ccc(C)cc1
-0.8 | CC1=C(C(=O)N2CCc3ccccc32)C2(CCC(C)CC2)OC1=O (configuration not stated)
1.0 | COc1cc(CNCc2ccccn2)ccc1OCc1ccc(Cl)c(Cl)c1
-0.3 | CC(C)Cn1c(CCC(=O)O)ccc1-c1cccs1
-0.6 | Cc1cc(SCC(=O)Nc2cccc(S(N)(=O)=O)c2)c(C)cc1Br
6.5 | CCOC(=O)Cc1nn(CCc2ccccn2)c(=O)c2ccccc12
-0.1 | COc1cc(-c2cc(C(=O)N3CCN(c4ccccn4)CC3)c3ccccc3n2)cc(OC)c1OC
-0.4 | N#Cc1nc(COc2ccc(F)cc2)oc1NCCCn1ccnc1
1.9 | CCOc1ccccc1C(=O)Nc1nnc(CC)s1
0.5 | CCOC(=O)c1cn2nc(Oc3cccc(F)c3)ccc2n1
-1.4 | CC(=O)OCC(=O)[C@@]1(O)CC[C@H]2[C@@H]3CCC4=CC(=O)C=C[C@]4(C)[C@@]3(Cl)[C@@H](Cl)C[C@@]21C
1.0 | COc1ccc(NC(=S)Nc2cccc([N+](=O)[O-])c2)cc1
0.1 | Cc1cc(=O)nc2c3ccccc3n(CC(=O)Nc3ccccc3Br)n12
1.5 | Cc1cc(C(=O)N/N=C/c2ccccc2)c(C)o1
-1.3 | O=C(c1ccc(C(F)(F)F)cc1)C1CCCN(C(=O)CCc2ccncc2)C1 (configuration not stated)
-1.0 | CN(CCc1ccccn1)C(=O)c1cccnc1Oc1ccc(Cl)cc1
-0.6 | CCOc1ccc(-c2c(C(=O)N/N=C/c3cccs3)nnn2-c2nonc2N)cc1
-3.4 | COC(=O)C1CCCCN1C(=O)c1cc(COc2cccc3cccnc23)on1 (configuration not stated)
-1.4 | Cc1cc(C)c(S(=O)(=O)Nc2nnc(CC(C)C)s2)c(C)c1
-1.1 | CC(C)CN(C(=O)c1cc(Cl)nc2ccccc12)c1c(N)n(Cc2ccccc2)c(=O)[nH]c1=O
-3.6 | COc1ccccc1Nc1nc(Cl)nc(Nc2ccccc2OC)n1
-0.2 | CC1CCN(S(=O)(=O)c2ccc(NC(=O)CN3CCCC(C)C3)cc2)CC1 (configuration not stated)
-1.5 | COc1ccc(CN(Cc2cccnc2)C(=S)NCCc2ccccc2)cc1OC

# No new results follow: entries from further up.
STK33 inh | molecule
-1.3 | O=C(c1ccc(C(F)(F)F)cc1)C1CCCN(C(=O)CCc2ccncc2)C1 (configuration not stated)
-1.0 | CN(CCc1ccccn1)C(=O)c1cccnc1Oc1ccc(Cl)cc1
-0.6 | CCOc1ccc(-c2c(C(=O)N/N=C/c3cccs3)nnn2-c2nonc2N)cc1
-3.4 | COC(=O)C1CCCCN1C(=O)c1cc(COc2cccc3cccnc23)on1 (configuration not stated)
-1.4 | Cc1cc(C)c(S(=O)(=O)Nc2nnc(CC(C)C)s2)c(C)c1
-1.1 | CC(C)CN(C(=O)c1cc(Cl)nc2ccccc12)c1c(N)n(Cc2ccccc2)c(=O)[nH]c1=O
-3.6 | COc1ccccc1Nc1nc(Cl)nc(Nc2ccccc2OC)n1

# (more compounds)
STK33 inh | molecule
-0.2 | COc1ccc(C(C(=O)NC(C)(C)C)N(Cc2ccc(F)cc2)C(=O)CCC(=O)Nc2cc(C)on2)cc1 (configuration not stated)
-1.9 | CCc1cc2cccc(C)c2nc1SCC(=O)NNC(=O)c1ccco1
0.9 | O=C(Nc1cc(Cl)cc(Cl)c1)c1cccnc1
0.8 | CCOC(=O)C1(Nc2nccs2)Sc2ccccc2NC1=O (configuration not stated)
-1.0 | COc1ccc(-n2nnc3c(=O)n(CC(=O)Nc4cc(C)on4)cnc32)cc1
-0.2 | O=[N+]([O-])c1cccc(NC(=S)N2CCCC2)c1
-0.1 | Cc1ccc(C(=O)COc2ccccc2-c2ccccc2)cc1
-0.1 | O=C(COc1ccc2c(-c3ccccc3)cc(=O)oc2c1)NCc1ccccn1
1.2 | COC(=O)c1cc(S(=O)(=O)NCC2CCN(Cc3ccc(C)cc3)CC2)cn1C
-0.1 | CCN(CC)CCNC(=O)c1c(O)c2cc(OC)c(OC)cc2[nH]c1=O
0.8 | CC(Oc1ccc2c3c(c(=O)oc2c1)CCCC3)C(=O)NCCCn1ccnc1 (configuration not stated)
0.3 | Cn1nc(C(=O)NCc2ccco2)c2ccccc2c1=O
0.3 | Cc1c(OCC(=O)NCc2ccncc2)ccc2c3c(c(=O)oc12)CCC3
0.2 | O=C(CC1SC(=O)N(Cc2ccccc2)C1=O)Nc1nccs1 (configuration not stated)
-0.1 | CCC1CN(C(=O)NCc2ccccc2)c2cc(C)ccc2O1 (configuration not stated)
-0.4 | O=C(O)C1C(C(=O)Nc2ccc(Cl)cc2)C2C=CC1C21CC1 (configuration not stated)
-1.5 | Cc1cc(C)cc(NC(=O)N2CCC(NC(=O)c3ccccc3C)CC2)c1
-0.5 | COc1cc(C(O)c2nc3ccccc3n2C)cc(OC)c1OC (configuration not stated)
-1.8 | O=S(=O)(NCc1ccco1)c1ccc(S(=O)(=O)N2CCCC2)cc1
-0.1 | CCCCn1c(=NC(C)=O)c(C#N)cc2c(=O)n3cccc(C)c3nc21
-0.3 | CCc1cccc(C)c1NC(=O)C1CC=CCC1C(=O)O (configuration not stated)
